gsp agonist = activates gsp, the McCune-Albright syndrome mutation. gsp mutant cells, cAMP HTRF, 30 min; control for the full effect not named in the record. AID 624287. Potency, µM (series often up to 76.9 µM), inactives show top-dose activation (cAMP increase), hits mostly activators. 0.13% of 340,000 active; active = well fitted activation curve with a large enough effect; inconclusive = small, poorly fitted or top-dose-only effect, or another doubt; inactive = no such curve, though single readings can be large or run the other way; cell line not stated here;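 further: phosphodiesterase inhibitor Ro 20-1724 added with compounds to block cAMP breakdown; potency means the concentration at half of the fitted maximal effect; nearly all actives have a fitted effect of over 60% in size; about a fifth of the inactives were tested at one dose only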
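Cells in DMEM/10% FBS with G418 were pretreated with compounds in DMSO plus […] (300 uM stock) for 30 min at 37C. cAMP was measured by HTRF (cAMP-d2 plus anti-cAMP antibody-K) after 30 min at room temperature.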
TRPML1 blocker = blocks the human TRPML1 channel | TRPML1-inducible cells, Ca2+ dye fluorescence, FDSS; stronger effect = lower value; inhibition of EC80 agonist-evoked calcium signal | AID 624415 | activity change, negative = inhibition, % (concentration not given with the values) | Q9GZU1 | 0.02% of 390,000 active; in the data active means activity change below about -50%; inconclusive means about -30% to -50%; inactive means above about -30%;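 further: stimulus is agonist 54-4 at its EC80 concentration; on the % scale 0 is the no-effect control and ±100 the full control effect; compound concentration not given in the record; the text of the record puts the active cut at -80%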
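TRPML1-DL cells, Tet-induced overnight (~16 h, 37 °C) at 1,500 cells/well, were loaded with Ca8 no-wash dye plus quencher for 45-90 min at room temperature. Compounds were pinned during FDSS kinetic reading; agonist 54-4 at EC80 (4 uM final) then added.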
TRPV1 potentiator = human TRPV1 potentiation | Q8NER1 | TRPV1-expressing cells, Fluo-8 calcium influx, capsaicin EC20 potentiation; host cell line not named in the record; control for the full effect not named in the record | potentiation, % at 8.33 µM | 0.02% of 320,000 active | AID 540277; active means potentiation above 80%; inconclusive means 30% to 80%; inactive means below 30%; further: 0% is about no effect
Target sequence (Q8NER1 whole entry, looked up): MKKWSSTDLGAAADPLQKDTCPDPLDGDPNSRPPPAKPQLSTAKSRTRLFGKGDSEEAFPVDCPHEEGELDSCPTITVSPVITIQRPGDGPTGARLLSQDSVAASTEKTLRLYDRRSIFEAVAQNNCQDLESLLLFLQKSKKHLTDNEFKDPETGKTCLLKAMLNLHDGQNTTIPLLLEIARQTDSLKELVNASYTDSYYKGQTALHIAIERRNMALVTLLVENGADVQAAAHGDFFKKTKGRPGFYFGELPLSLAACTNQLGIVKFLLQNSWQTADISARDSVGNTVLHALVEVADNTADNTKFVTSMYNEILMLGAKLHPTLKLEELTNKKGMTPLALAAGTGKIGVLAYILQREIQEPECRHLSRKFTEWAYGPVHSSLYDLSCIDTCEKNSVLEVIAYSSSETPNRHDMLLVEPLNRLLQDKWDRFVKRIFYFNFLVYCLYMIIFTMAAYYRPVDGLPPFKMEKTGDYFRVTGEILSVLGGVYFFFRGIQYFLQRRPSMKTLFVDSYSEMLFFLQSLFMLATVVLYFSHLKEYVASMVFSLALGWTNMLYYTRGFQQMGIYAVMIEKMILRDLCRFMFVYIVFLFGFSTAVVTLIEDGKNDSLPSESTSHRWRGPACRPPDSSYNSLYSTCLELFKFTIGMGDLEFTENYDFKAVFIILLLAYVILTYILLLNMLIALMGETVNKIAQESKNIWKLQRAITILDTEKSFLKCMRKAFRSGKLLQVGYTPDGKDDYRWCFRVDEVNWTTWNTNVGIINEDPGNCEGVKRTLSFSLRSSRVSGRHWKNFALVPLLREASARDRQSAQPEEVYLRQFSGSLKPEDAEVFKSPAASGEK
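TRPV1-expressing cells were cultured overnight at 35.5C and loaded with Fluo-8 calcium dye for 40 to 90 min at room temperature. After a 10 s baseline, compound was added and calcium influx was read kinetically for 3 min (ex 480/em 520 nm).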
Sfp inh = blocks B. subtilis Sfp PPTase activity | Q9F4F7 | Biochemical Sfp PPTase activity, qHTS | Potency, µM, without a hit: max response, negative = inhibition, usual class: inhibitors | 3.5% of 310,000 active; active means well fitted inhibition curve with a large enough effect; inconclusive means small, poorly fitted or top-dose-only effect, or another doubt; inactive means no such curve, though single readings can be large or run the other way;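 further: the enzyme is Sfp with the accession as filed and its product quenches rhodamine fluorescence; potency means the concentration at half of the fitted maximal effect; 0% = enzyme reaction without inhibitor and -100% = no enzyme wells; top concentration of the series not given in the record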
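Reaction rates are the 30-min fluorescence difference (ex 525, em 598 nm) in wells containing 15 nM Sfp, 5 uM rhodamine-CoA and 12.5 uM BHQ-2-YbbR at pH 7.6 with 10 mM MgCl2.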
Menin MLL FP FL = displaces fluorescein MLL peptide from human menin; 290,000 tested, under 10 active; FP activity change, % at 61.4 µM; Fluorescence polarization, fluorescein-MLL peptide displacement from menin; inconclusive = falling polarisation curve, or a change in total fluorescence; inactive = total fluorescence flat and polarisation flat or rising; no compound was filed as active; the % refers to the polarisation; negative = inhibition;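 further: % of control where 0% means no effect; inhibitors lower the polarisation; unlabelled MLL peptide was the positive control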
gsp antag = antagonizes gsp, the McCune-Albright syndrome mutation | AID 624288 | gsp-mutant cells, cAMP HTRF, 30 min; control for the full effect not named in the record | 0.4% of 340,000 active | Potency, µM (titrated, usually from 76.9 µM), for inactives: at the top dose activity change, negative = inhibition, most hits filed as inhibitors; active = falling curve of any shape with a large fitted effect; inconclusive = falling curve, mostly with a smaller effect; inactive = flat or rising curve; cell line not stated here;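 further: intracellular cAMP measured with PDE inhibitor Ro 20-1724 present during compound exposure; potency means the concentration at half of the fitted maximal effect; on the % scale 0 is the no-effect control and ±100 the full control effect; nearly all actives have a fitted effect of over 65% in size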
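HTRF cAMP measurement after 30 min RT detection following 30 min, 37C compound treatment alongside […] (added as 300 uM solution) in G418-selected cells seeded at 2000/well and grown 16–24 h.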
ClpP mod = qHTS Assay for Activators of ClpP; AID 651965, 2013; 1.9% of 340,000 active; Potency, µM (top dose mostly 57.5 µM), without a hit: top-dose activity change, negative = active; ATP-dependent Clp protease proteolytic subunit (Bacillus subtilis (strain 168)), P80244; purified B. subtilis ClpP, FRET peptide cleavage, 20 min; active = well fitted falling curve with a large enough effect; inconclusive = small, poorly fitted or top-dose-only effect; inactive = no such curve, though single readings can be large or run the other way; further: potency means the concentration at half of the fitted maximal effect; the source files actives as falling curves though it sought activators and does not explain the sign; nearly all actives have a fitted effect of over 65% in size; many hits overshoot -100%
Target sequence (P80244 whole entry, looked up): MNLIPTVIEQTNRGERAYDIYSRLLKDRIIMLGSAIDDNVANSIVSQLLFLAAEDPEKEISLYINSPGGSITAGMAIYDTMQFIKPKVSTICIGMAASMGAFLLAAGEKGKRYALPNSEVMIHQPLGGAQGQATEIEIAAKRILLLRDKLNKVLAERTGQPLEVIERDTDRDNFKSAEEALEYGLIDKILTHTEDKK
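Buffer: 100 mM Tris/HCl pH8, 100 mM KCl, 0.05% low protease BSA, 2.5% glycerol, 0.01% Tween-20. ClpP 10 microg/mL final; 20 min RT; delta FRET normalized to ADEP and DMSO controls.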
Active calls of the source: *; ? = inconclusive; . = no result given; & = joins results of further samples; [ ] = another dose, or the depositor's remark.

SMILES | gsp agonist | TRPML1 blocker | TRPV1 potentiator | Sfp inh | Menin MLL FP FL | gsp antag | ClpP mod
O=C(Nc1ccc2c(c1)OCO2)C1CCN(Cc2cc3c(cc2O)OCO3)CC1 | ? | 13 | -15 | 6% | 4.8 | -8% | .
CCCCCOc1ccc(N2C(=O)CC(N(O)c3ccccc3)C2=O)cc1 (centres undefined) | -1% | 27 | -3 | -4% | 3.6 | -1% | 0.5%
CSCc1ccc(C(=O)N2CCCC(Nc3ccc(F)cc3)C2)o1 (centres undefined) | -21% | 9 | 1 | 19% | . | -2% | -1.8%
Cc1ccc(-c2ccc(=O)n(CC(=O)N3CCN(c4cccc(C)c4)C(C)C3)n2)cc1 (centres undefined) | -4% | 5 | 4 | -4% | 4.3 | 5% | -2.0%
Nc1ccc(Nc2nc(-c3cccs3)cs2)cc1 | ? | 9 | -8 | 8% | 2.3 | 11% | -1.5%
CCCn1c2ccccc2c2cnn(CC(=O)NC3CCN(Cc4ccccc4)CC3)c(=O)c21 | ? | 10 | -4 | 28% | 2.0 | 1% | 3.9%
C/C(=N\N=C(N)N)c1ccc(Cl)cc1 | 11% | 47 | 2 | -7% | 7.2 | 8% | 2.5%
Cc1ccc(-n2nc(C)c3cc(C(=O)O)sc32)cc1 | -41%[inhibitor] | 41 | 4 | 9% | 0.1 | -12% | -5.8%
O=c1[nH]c2ccccc2c(O)c1Cc1ccccc1 | 28%[15.4 µM] | -13 | 0 | 44%[activator] | -19 | 9% | -9.1%
COc1cc(C(C)=O)ccc1OCC(O)CN(CCO)Cc1ccccc1 (centres undefined) | -2% | 16 | 5 | 19% | -1.2 | 6% | 1.3%
COc1cccc(NC(=O)CN2C(=O)COc3ccc(S(=O)(=O)N4CCOCC4)cc32)c1 | -10% | 38&8 | -5 | 7% | . | 7% | 1.1%&-0.3%
C=CCc1cc(/C=N/n2cnnc2)cc(OCC)c1O | -35%[inhibitor] | 13 | 12 | 10% | 3.0 | 0% | -4.5%
CC(=O)Oc1ccc(-c2cccc(C(=O)NCC(=O)O)c2)cc1 | -10% | 9 | 0 | 10% | -1.6 | 7% | -1.5%
Cc1c(NC(=O)CSc2nncn2-c2ccccc2)c(=O)n(-c2ccccc2)n1C | ? | 5 | -9 | . | . | -12% | -2.3%
Cc1noc(/C=C/N(C)C)c1S(=O)(=O)N1CCCC(C(=O)NC(C)c2ccccc2)C1 (centres undefined) | 20% | 0 | 9 | 18% | 16 | -6% | -0.4%
O=C(O)CC(C(=O)O)c1cn(Cc2ccccc2)c2ccccc12 (centres undefined) | -30% | -4 | 1 | 13% | 2.4 | 6% | 28µM*
CC(=O)c1nc(N2C(=O)CC(Cc3cc(C)cc(C)c3)C2=O)sc1C (centres undefined) | 30%[15.4 µM] | 78 | 5 | 25% | 4.7 | 1% | 0.4%
O=C(CN1C(=O)C2CC=CCC2C1=O)NCc1ccc2c(c1)OCO2 (centres undefined) | 29% | 0 | 5 | -7% | 5.1 | 10% | -25%
Cc1cccn2c(=O)c3cc(C(=O)NC4CCCC4)c(=N)n(CCCN4CCOCC4)c3nc12 | ? | -11 | 20 | 7% | 1.1 | 2% | .
O=C(COC(=O)c1ccccn1)Nc1cccnc1Cl | 9% | 11 | 11 | . | . | 8% | -4.4%
COc1cc(OC)cc(C(=O)Nc2ccc(Nc3ccccc3)cc2)c1 | -14% | . | 11 | 6% | 0.8 | ? | -0.2%
O=C(CCNC(=O)Cn1ccc2ccccc2c1=O)NCc1ccc(F)cc1Cl | 24% | 31 | 3 | 20% | 2.7 | 7% | -5.7%
C[C@H]1CN([C@@H](C)CO)C(=O)c2cc(C3=CCCCC3)cnc2O[C@@H]1CN(C)C(=O)Cc1ccccc1 | ? | -9 | . | . | . | . | -5.7%
CC(=O)Nc1ccccc1NC(=O)C/C(C)=N/NC(=O)c1ccncc1 | ? | -6 | -2 | -17% | -0.1 | 15% | -2.8%
Cc1cc(C)n(Cc2cc(C(=O)O)c3ccccc3n2)n1 | 8% | -12 | -6 | 9% | -4.9 | 7% | .
CCCCCn1nc(C(=O)N(CC)c2c(N)n(CCCC)c(=O)[nH]c2=O)c2ccccc2c1=O | 12%[15.4 µM] | -11 | . | . | . | 6% | -1.2%
Nc1c(C(=O)Nc2ccccc2F)sc2nc(-c3ccco3)ccc12 | ? | -22 | -4 | 4µM* | ? | 4% | 28µM*
O=C(O)CCCN1C(=O)C2C3CCC(C3)C2C1=O (centres undefined) | -35%[inhibitor] | -4 | . | . | . | . | -2.3%
O=C(COC(=O)c1ccc(S(=O)(=O)N2CCCC2)cc1)Nc1ccc(N2CCOCC2)cc1 | 14%[15.4 µM] | 17 | -3 | -12% | -5.1 | -5% | .
Cc1ccc(F)cc1S(=O)(=O)NCc1ccc(N2CCN(C)CC2)cc1 | -1%[15.4 µM] | -12 | -4 | 1% | 3.1 | 8% | .
COc1ccc(-n2nnnc2SCC(N)=O)cc1 | -22% | 15 | 0 | 19% | -0.1 | 0% | -0.3%
CCn1c(-c2nn(C)c(C)c2Cl)n[nH]c1=S | -57%[inhibitor] | 10 | 2 | -3% | -1.3 | 20% | 0.0%
CCCCC(=O)NNC(=O)c1c(O)c2ccccc2[nH]c1=O | 3% | -5 | . | 1% | 3.6 | 9% | 0.4%
Cc1ncc([N+](=O)[O-])n1CCO | . | 7 | 2&11 | -9%&21%&12%&-12% | 0.3 | -5% | -0.7%
S=C(Nc1ccc(Cl)cc1)c1nc2ccccc2s1 | 10% | 28 | 6 | 27% | 3.3 | 5% | -2.3%
Cc1ccnc(SCC(=O)n2c3c(c4ccccc42)CC(C)CC3)n1 (centres undefined) | -19% | 9 | 6 | -14% | 1.1 | 0% | -1.8%
O=C1CCC(=O)c2ccc3c4c(ccc1c24)CC3 | 8% | -5 | . | . | . | -3% | .
CCOc1cc(C(=O)NC)cc(OCC)c1OCC | 5% | -4 | -6 | 13% | 5.0 | 5% | 1.1%
CC(=O)c1cccc(S(=O)(=O)N2CCC(n3nnc4cc(F)ccc43)CC2)c1 | 7% | -11 | -1 | -12% | 1.9 | -30% | -0.5%
CC1CCc2cc(F)ccc2N1C(=O)c1cnc2sccn2c1=O (centres undefined) | -24% | -2 | -9 | 13% | 0.3 | 6% | -0.4%
O=C(CCC1CCCN(c2ncccn2)C1)NCc1ccccc1F (centres undefined) | -19% | 0 | -6 | -4% | -0.6 | 9% | -17%
CCOc1ccc(N(C)Cc2cc(=O)oc3ccc(OCC)cc23)cc1 | -10%[15.4 µM] | -9 | 13 | 1% | 2.6 | -12% | -10%
O=C(CSc1ncnc2c1oc1ccccc12)NCc1ccco1 | 5% | -17 | 0 | 28µM* | 5.9 | 24% | -1.1%
O=C(c1ccccc1)N1CCN(C(=O)c2ccc([N+](=O)[O-])cc2)CC1 | -17% | -18 | 0 | 6% | 6.1 | 12% | 1.6%
Cc1ccc(-n2cc(CNC(C)c3cnn(C)c3C)c(-c3ccc(F)cc3)n2)cc1 (centres undefined) | -3% | 18 | ? | -3% | 1.6 | -6% | -16%
CCOC(=O)N1CCN(C2CC(=O)N(c3ccc(F)cc3)C2=O)CC1 (centres undefined) | 2% | 12 | 12 | 3% | 0.4 | 3% | -1.6%
Cc1cc(-c2ccc(F)cc2)nc2cc(C(N)=O)nn12 | ? | 10 | 6 | -23% | 2.0 | -2% | ?
C[C@H]1CN([C@@H](C)CO)C(=O)CCCn2nncc2CO[C@H]1CN(C)S(=O)(=O)c1ccc(Oc2ccccc2)nc1 | -58% | -4 | . | . | . | . | 0.6%
CC(NC(=O)C(=O)N1CCCCC1)C(c1cccs1)N1CCN(c2ccccc2F)CC1 (centres undefined) | 22% | -5 | -31 | 1% | 2.2 | -8% | -3.3%
O=C(COC(=O)CCC1CCCC1)Nc1ccccc1Sc1ccccc1 | 2% | 1 | 5 | -11% | 6.2 | 9% | .

Next compounds:
SMILES | gsp agonist | TRPML1 blocker | TRPV1 potentiator | Sfp inh | Menin MLL FP FL | gsp antag | ClpP mod
CC(=O)Nc1ccc(S(=O)(=O)N[C@@H](C)C(=O)Nc2ccc(N3CCOCC3)cc2)cc1 | 23% | 3 | -2 | 6% | 1.1 | 1% | ?
CCOC(=O)C1(Cc2ccccc2C)CCCN(C(=O)c2cc(C3CC3)[nH]n2)C1 (centres undefined) | -3%[15.4 µM] | -8 | -10 | 7% | 2.6 | 1% | .
Nc1nonc1-n1nnc(C(=O)N/N=C/c2ccc(O)cc2)c1COc1ccc(F)cc1 | -11% | -7 | 7 | 20% | 0.5 | -19% | -3.9%
CN(C)C(=O)CCc1ccc2c3c([nH]c2c1)[C@]1(CCc2ccccc2)[C@@H](C(=O)N2CCCCC2)C[C@H](CC(=O)NCCCn2ccnc2)C(=O)N1CC3 | . | -19 | . | . | . | -3% | -0.9%
O=C(CSc1ccccc1)NCCCc1ccccc1 | -7% | -5 | -7 | 8% | -3.9 | -3% | .
S=C(c1ccc(-c2ccc(Br)cc2)o1)N1CCCCC1 | 1%[15.4 µM] | 10 | -8 | 13% | -4.3 | 10% | -2.8%
CN=c1scc(C)n1/N=C/c1cc(Br)c(O)c(Br)c1 | 19%[15.4 µM] | 29 | -2 | -21% | -7.2 | -85% | .
C/C=C(\C)CN1CCC(n2nccc2NC(=O)CCCc2ccccc2)CC1 | ? | 2 | 5 | 8% | . | 10% | -4.3%
Cc1ccc2[nH]c(=O)c(CN(CCc3ccccc3)C(c3nnnn3Cc3ccco3)C(C)C)cc2c1 (centres undefined) | -1%[15.4 µM] | 47 | 6 | 18µM* | ? | -12% | .
CCOC(=O)[C@H]1[C@H]2COc3ccc(C)cc3[C@@H]2N2C(=O)CN(C)C(=O)[C@@]12C | . | -10 | . | . | . | 10% | -14%
COc1ccccc1C=NN1C(=O)CSC1=S | -2% | 26 | . | . | . | -6% | 0.4%
CCn1nc(C(=O)OCC(=O)N2CC(=O)Nc3ccccc32)c2ccccc2c1=O | -1%[15.4 µM] | 6 | -14 | 12% | -5.1 | -13% | .
CCCC(=O)Nc1c(-c2cccs2)c(=O)c2ccccc2n1CC | . | . | -4 | 19% | 2.7 | . | .
O=C(COC(=O)CC1CCCC1)Nc1ccc(Cl)cc1 | 1%[15.4 µM] | -3 | 16 | . | . | 15% | .

High-throughput results (PubChem)
